Sa ugtP lethal: compounds lethal to S. aureus RN4220 ugtP deletion mutant | AID 1259309 | 330,000 tested, 0.54% active | growth inhibition, % (no concentration beside the values) | OD600 growth, 16 h; some inactives read as strong as hits;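 active = z-score under -3 and OD600 up to 0.15 on both plates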;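 note: plate controls were untreated wells for no effect and antibiotic for full effect; wells of about 80 µL received 100 nL stock; the first replicate is given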
Bead autofluor: flagged as autofluorescent in microsphere protease counterscreen; compound autofluorescence counterscreen, microsphere flow cytometry; stronger effect = higher value; fluorescence intensity (test concentration not listed); 360,000 tested, 3.1% active; AID 624483;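 active = at least 3 SD above the mean of all compounds, about 16000 in these data; inconclusive = too few beads counted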;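 note: 100 nL of 1 mM stock went into each well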
BJeLR lethal: kills HRASV12-expressing BJeLR cells; 300,000 tested, 0.17% active; BJeLR (HRASV12) viability, CellTiter-Glo ATP luminescence, 48 h; reference of the scale not given here; inhibition, % (concentration not given with the values);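 active = replicate mean above 50%; inconclusive = above 50% but judged a plate artefact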;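 note: 50 nL library stock added to about 25 µL; numbers are from one replicate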
Mtb hypoxia inh: reduces hypoxia-regulated biosensor signal in M. tuberculosis | M. tuberculosis hypoxia-regulated fluorescent reporter, fluorescence | fluorescence inhibition, % (concentration not given with the values) | 300,000 tested, 0.1% active | AID 1159583;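 active = 35 to 45% if threefold the growth effect, above 45% if 1.5-fold the growth effect; inactive = the rest, general growth blockers included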;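 note: wells of about 50 µL received 100 nL stock; 0% = vehicle wells and 100% = reference inhibitor wells; whole bacteria with a GFP reporter of the hypoxia response; strong numbers were not always called active; many hits fall short of the cut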
PrP UTR inh: suppresses PrP 5' UTR mRNA reporter expression. cell-based PrP 5' UTR mRNA reporter, plate reader. inhibition, % (concentration not given with the values). 340,000 tested, 0.35% active;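 active = every replicate at 50% or more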;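 note: 0 = median of the neutral control wells; tested in H4 reporter cells; numbers are from one replicate; inactives centre near -14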
RN4220 kill: kills Staphylococcus aureus RN4220 | AID 1259311 | 330,000 tested, 0.33% active | S. aureus RN4220 growth, OD600, 16 h | inhibition, % (no concentration beside the values);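 active = z-score of -3 or lower and OD600 up to 0.18 on both plates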;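 note: plate controls were untreated cells for no effect and reference antibiotic for full effect; stock transfer was 100 nL into about 80 µL; one replicate is shown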
Mtb hypoxia inh growth: second read-out of Mtb hypoxia inh, no call of its own (marks repeat the call); growth inhibition, %; measured here: M. tuberculosis growth (absorbance);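 0% = vehicle and 100% = reference antibiotic; read after six days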
Starred values were filed as active, the others as inactive; ? = inconclusive; / = no result given; & = joins results of further samples.

mol	RN4220 kill	Sa ugtP lethal	Mtb hypoxia inh growth	PrP UTR inh	Mtb hypoxia inh	Bead autofluor	BJeLR lethal
CCCCOc1ccc(C2/C(=C(/O)c3ccc4c(c3)CC(C)O4)C(=O)C(=O)N2CCCN2CCOCC2)cc1OC (configuration not stated)	-2.7	9	-6	-10	-3	/	11
CCOC(=O)c1ccc(NC(=O)C2CC(O)CN2S(=O)(=O)c2ccc(C)cc2)cc1 (configuration not stated)	8.1	13	-4	-12	-3	2910	/
COc1ccccc1/C=C1\Oc2cc(OC(=O)N3CCOCC3)ccc2C1=O	3.0	-2	7	-37	9	/	2
Cc1ccccc1OCC(=O)NNC(=O)CCc1ccccc1	2.4	4	-1	-21	-8	2465	-4
COc1cccc(CNc2ccc3c(c2)ncn3C)c1OC	6.3	3	-5	-24	3	4377	8
COC(=O)c1[nH]c2cccc(OC)c2c1NC(=O)CCN1CCC(C)CC1	-2.3	1	6	-12	6	2658	-2
CCOC(=O)C1CCN(Cc2cc(C(C)C)c(O)c(C(C)C)c2)CC1	3.5	6	4	-19	2	2062	6
CC(=O)c1cccc(NS(=O)(=O)c2cc3c(cc2C)NC(=O)CO3)c1	1.8	4	-4	2	3	5633	-2
O=C(NCc1cccs1)c1ccc(CS(=O)(=O)c2ccc(Cl)cc2)o1	3.5	19	1	4	8	16058	1
CCOc1ncccc1C(=O)Nc1ncc(C)s1	5.7	2	7	-12	14	4360	0
O=C(CSC1=NCCN1)NC(c1ccccc1)c1ccccc1	0.1	5	12	-12	7	9552	1
CCN1C(=O)C(=C2Sc3ccccc3N2CC)OC1=S	3.3	-6	19	/	-3	/	/
Cc1ccc(NC(=O)CN(C)C(=O)c2n[nH]c(=O)c3ccccc23)cc1	0.0	-2	1	5	3	3341	-2
COC(=O)C1CCN(Cc2nnc(-c3ccccc3)o2)CC1	-0.1	3	16	-25	17	3679	4
CCn1c(SCC(=O)NN=Cc2ccccc2OCC(=O)O)nnc1-c1ccc(C)cc1	3.1	9	3	/	12	/	/
COc1ccc(S(=O)(=O)N2CCC(C(=O)NCc3ccncc3)CC2)cc1OC	/	/	/	-14	/	3056	10
CC(C)CC(NC(N)=O)C(=O)NCCc1ccc(Cl)cc1 (configuration not stated)	2.9	-3	9	-42	14	5894	9
Cc1cccc(C(=O)NC(=S)NCc2cccnc2)c1	5.9	3	0	-23	8	2808	-1
COCc1cc(C)nc2sc(C(=O)Nc3ccccc3F)c(N)c12	4.6	4	7	-18	15	3741	-3
O=C(O)CCCCCNC(=O)c1ccccc1	-1.4	-3	-2	-29	8	8956	-7

Whole records, quoted from the list.
Entry for `CCOc1ncccc1C(=O)Nc1ncc(C)s1` : RN4220 kill = 5.7; Sa ugtP lethal = 2; Mtb hypoxia inh growth = 7; PrP UTR inh = -12; Mtb hypoxia inh = 14; Bead autofluor = 4360; BJeLR lethal = 0
Entry for `O=C(CSC1=NCCN1)NC(c1ccccc1)c1ccccc1` : RN4220 kill = 0.1; Sa ugtP lethal = 5; Mtb hypoxia inh growth = 12; PrP UTR inh = -12; Mtb hypoxia inh = 7; Bead autofluor = 9552; BJeLR lethal = 1

(next part)
mol	RN4220 kill	Sa ugtP lethal	Mtb hypoxia inh growth	PrP UTR inh	Mtb hypoxia inh	Bead autofluor	BJeLR lethal
Cc1ccc2nc(-c3ccco3)c(Nc3ccccc3)n2c1	3.0	6	1	-8	3	2075	-4
CC(C)CN(C(=O)COC(=O)C1CC1)c1c(N)n(Cc2ccccc2)c(=O)[nH]c1=O	1.2	3	-24	-9	-13	?	-4
N#Cc1ccccc1CN1C(=O)NC2(CCCCCC2)C1=O	1.0	-1	5	-31	12	3873	7
CN(CCOc1ccc(Cl)cc1)CC(O)c1ccccc1 (configuration not stated)	-0.9	-1	0	-6	13	3816	-8
COc1cc(NC(=O)c2sc3ncn(CC(=O)N4CCCC(C)C4)c(=O)c3c2C)cc(OC)c1OC (configuration not stated)	2.6	3	4	-2	-3	5750	1
CCc1ccc(C(=O)CSc2nc(N)cc(=O)[nH]2)cc1	3.9	3	10	-1	-4	4056	5
OC(COCc1ccc2c(c1)OCO2)CN1CCCCC1 (configuration not stated)	9.3	11	-1	-2	3	4422	0
O=C(CCNC(=O)c1ccc(Br)cc1)Nc1cccc(S(=O)(=O)N2CCCCCC2)c1	/	/	/	-24	/	?	-3
Cc1ccc(C(=O)Nc2nc3ccccc3n2CCN2CCCC2)cc1	2.6	3	/	-101	/	7188	7
CCc1nnc(NC(=O)c2nc(S(=O)(=O)Cc3cccc(C)c3)ncc2Cl)s1	/	/	/	8	/	4054	5
CCC(c1nnc(SCC(=O)N2CCOCC2)n1C1CCCCC1)N(C)C (configuration not stated)	0.6	4	-1	-1	8	4251	-1
NS(=O)(=O)c1ccc(CCNC(=O)CSc2ccc3ccccc3c2)cc1	13	3	1	-23	7	3750	-11
CC(=O)Oc1ccc(/C(C)=N\N2CCN(Cc3ccc(Cl)cc3)CC2)cc1	/	/	/	-16	/	3850	2
CCOC(=O)N1CCN(C(=O)CCl)CC1	2.0	7	23	6	21	3132	-11
Cc1cc(C)nc(NS(=O)(=O)c2ccc(N3C(=O)C4CCCCC4C3=O)cc2)n1 (configuration not stated)	-0.5	0	11	-17	22	3478	3
Cc1cccc(NC(=O)CNC(=O)COC(=O)c2ccco2)c1C	4.8	-1	7	-27	-6	3859	/
CCOc1ccc(S(=O)(=O)NC(C)(C)C)cc1-c1nc2c(C(C)(C)C)nn(C)c2c(=O)[nH]1	-5.8	-10	2	-10	3	9955	-12
Cc1ccc2nc(N(CCN(C)C)C(=O)C3=COCCO3)sc2c1	0.5	6	4	-30	13	7710	4
COc1ccccc1CNC(=O)Cn1cccc1C(=O)c1ccccc1	3.9	7	-7	-13	2	4784	-4
CSc1nc(O)c(C(c2cccc([N+](=O)[O-])c2)c2c(O)nc(SC)[nH]c2=O)c(=O)[nH]1	2.5	3	-4	11	-2	3057	3

Carrying on:
mol	RN4220 kill	Sa ugtP lethal	Mtb hypoxia inh growth	PrP UTR inh	Mtb hypoxia inh	Bead autofluor	BJeLR lethal
CC12C=CC3(O1)C(C(=O)N(c1cccnc1)C3C(=O)NC1CCCCC1)C2C(=O)Nc1ccccc1 (configuration not stated)	8.1	8	2	-19	1	3818	-13
COc1ccccc1-c1cc(-c2ccc(O)cc2)nc(N)c1C#N	3.3	9	6	-8	-1	3633	-2
O=C(COc1ccc(Br)cc1)NCCCn1ccnc1	0.9	5	11	-9	1	5430	6
O=C(C[C@@H]1C/C=C\C[C@@H](NC(=O)OCC2c3ccccc3-c3ccccc32)C(=O)OCCNC1=O)N[C@@H](CO)Cc1ccccc1	4.0	-17	8	-15	2	2737	/
CC(C)(C)NC(=O)C(=O)NNC(=O)c1cccc(Br)c1	6.9	0	9	-15	7	4232	1
Cc1ccc(NC2CCCN(C(=O)CCc3cn[nH]c3)C2)cc1C (configuration not stated)	2.6	10	1	-15	7	4288	8
Cc1cc(C)c(NC(=O)c2sc3nc(C)[nH]c(=O)c3c2C)c(C)c1	3.5	8	9	/	16	/	3
O=C(CC1(O)C(=O)Nc2cc(Cl)cc(Cl)c21)c1ccncc1 (configuration not stated)	9.4	-11	7	-15	2	11154	-19
COc1ccc(C(=O)CSc2[nH]c(=O)cc(C(F)(F)F)c2C#N)cc1	40	27	-1	-19	-2	4107	6
CCOc1ccc(-c2cn3ccccc3n2)cc1	-5.1	-9	-5	21	1	3406	/
CCOc1ccccc1N=c1oc2cc(O)ccc2cc1C(=O)NCC1CCCO1 (configuration not stated)	6.7	-21	4	-8	-7	16487*	4
CCOC(=O)C1=C(C)NC(C)=C(C(=O)OCC)C1C(=O)OCC(=O)N1CCC(C)CC1	-4.5&-3.1	-8&-2	1&13	-17&-7	2&10	2864&5046	3
Nc1nc(SCC(=O)N2CCCc3ccccc32)n(-c2ccccc2)n1	0.1	6	7	-6	11	5353	14
O=c1[nH]nc(-c2ccccc2)c2ccccc12	6.7	2	5	-10	13	5490	4
O=C(O)c1cccc(C(=O)Nc2cccc(NC(=O)C3CCCO3)c2)c1 (configuration not stated)	6.0	-4	2	4	8	2686	5
O=C(Nc1ccc2c(c1)Cc1ccccc1-2)c1cc2ccccc2o1	4.5	1	0	-28	4	3378	-14
Cn1cnc(NCc2ccccc2)c1[N+](=O)[O-]	4.0	0	-5	-24	3	3875	1
O=C(Nc1nnc(-c2ccc(F)cc2)s1)c1c(F)cccc1Cl	2.1	7	-1	-3	1	4521	6
COc1ccc(C2=NCCn3nc4cc(C(F)(F)F)ccc4c32)cc1	/	/	/	-9	/	3856	-2
COc1cc2c(cc1/C=C/[N+](=O)[O-])OCO2	0.2	7	11	-29	1	4950	37

Further entries:
mol	RN4220 kill	Sa ugtP lethal	Mtb hypoxia inh growth	PrP UTR inh	Mtb hypoxia inh	Bead autofluor	BJeLR lethal
O=S(=O)(c1cccc(-c2nnc(SCc3nc4ccccc4s3)o2)c1)N1CCOCC1	6.1	8	15	-62	10	3589	1
O=C(CN(CC1CCCO1)C(=O)CNS(=O)(=O)c1ccccc1)NCc1ccccc1 (configuration not stated)	1.3	-7	/	-2	/	4899	-8
O=C(CC(CC(=O)c1ccc(Br)cc1)c1cccnc1)c1ccc(Br)cc1	2.2	2	14	/	5	5586	2
COc1ccc(C)cc1S(=O)(=O)Nc1ccc(F)c(Cl)c1	-5.5	-19	9	-15	6	2921	-7
Cn1c(=O)[nH]c(=O)c2c1nc(N1CCN(Cc3ccccc3)CC1)n2CCCc1ccccc1	9.3	17	4	-30	9	7839	11
O=C(Nc1ccc2c(c1)OCCO2)c1cc(-c2ccccc2)nc2ccccc12	-3.2	-3	2	-49	7	24974*	-5
Cc1ccc(S(=O)(=O)N2CCN(C(=O)COC(=O)COc3ccc(Br)cc3)CC2)c(C)c1	-3.9	-4	0	-23	1	3091	/
COc1cccc(-n2c(COc3ccc(C)cc3)nnc2SCC(=O)O)c1	4.2	9	2	-29	3	9372	-4
O=C(CNC(=O)[C@@H]1Cc2ccccc2CN1)NCc1ccco1	0.9	3	6	-10	9	5285	3
COc1ccc(Cl)cc1/C=C(\C#N)C(N)=O	4.8	-1	6	-1	11	4434	-11
CCN(CC)CCCNc1nc2ccccc2c2nc(-c3ccncc3)nn12	0.9	-7	20*	-16	50*	3546	-9
CCCCCCCCCCNC(=O)CCn1[nH]c(=O)c2ccccc2c1=O	6.0	-1	13	-21	5	2992	4
COc1ccc(NC(=O)CN(C)C(=O)c2cc(-c3ccc(OC)cc3)nc3ccccc23)cc1	1.4	10	-5	-30	3	4121	-5
CC1(C)C(=O)CC[C@]2(C)C3C(=O)C=C4[C@H]5C[C@@](C)(C(=O)O)CC[C@]5(C)CC[C@]4(C)[C@]3(C)CC[C@@H]12 (some centres not stated)	/	/	/	-22	/	3455	-7
N/C(=N\OC(=O)CCCOc1ccccc1)c1cccc(Br)c1	4.0	-1	5	-40	-10	4321	-2
COc1ccc(-c2ccc(-c3nnc(-c4cc(OC)ccc4OC)o3)cc2)cc1	3.1	-6	5	-25	-6	22687*	-1
COc1ccc(C(=O)NCCCCCC(=O)NN=Cc2ccco2)cc1OC	-1.1	6	-2	/	9	/	/
O=C(N/N=C/c1c(O)n(C2CC2)c(=S)[nH]c1=O)c1ccccc1	-0.4	4	-4	-26	1	7283	5
CCc1ccc(-n2c(O)c(/C=N/N3CCCCC3c3cccnc3)c(=O)[nH]c2=O)cc1 (configuration not stated)	/	/	/	17	/	2836	1
O=C(Nc1ncccc1O)c1ccc(S(=O)(=O)Nc2ccccc2)cc1	2.4	3	7	-18	12	5746	11

Continued.
mol	RN4220 kill	Sa ugtP lethal	Mtb hypoxia inh growth	PrP UTR inh	Mtb hypoxia inh	Bead autofluor	BJeLR lethal
CCc1ccc(NC(=O)Cc2c(C(=O)O)n(C)c3ccccc23)cc1	5.2	-2	-1	9	6	4717	8
CC(C)N(C(=O)CSc1nnc(NC(=O)C2CCC2)s1)C(C)C	1.5	8	2	1	10	4285	-8
Cc1cccc(S(=O)(=O)CC(=O)Nc2nc(-c3ccccc3)cs2)c1	1.6	3	/	-52	/	2434	-5
NC1=NC(c2cccnc2)n2c(nc3ccccc32)N1 (configuration not stated)	2.7	1	-5	/	-5	/	1

Screening data from PubChem BioAssay.

This is a random part of the collection, and some 4% of all compounds hit somewhere here.
